T cruzi inh – blocks replication of Trypanosoma cruzi | T. cruzi beta-gal in NIH3T3, luminescence, 90 h | inhibition, % (concentration not given with the values) | hit rate 1.4% among 300,000;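 active means mean inhibition across valid replicates above about 55%, limit read from the data; inconclusive means mean below that limit but half or more replicates reach it; inactive means mean below it, under half of replicates reach it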;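 further: signal also drops with host cell toxicity which is not excluded here; 0% = plate median of DMSO wells and 100% = zero luminescence signal; higher percent means less beta-gal luminescence so fewer parasites; stock transfer was 50 nL into about 50 µL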
Beta cell apopt – beta cell apoptosis inhibition; hit rate 0.8% among 300,000; INS-1E cytokine-induced death, ATP luminescence, 48 h; percent of positive-control rescue, neutral wells zero; protection from apoptosis, % (concentration not given with the values); AID 435005;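 active means all replicates at 75% or more, or half of them and the mean; inconclusive means half reach 75% but not the mean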;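 further: 0% = cytokine-treated negative control wells and 100% = positive control rescue; higher means more ATP so stronger rescue from cytokine killing; wells of about 40 µL received 100 nL stock; the first replicate is given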
LANA-H2A inh – blocks KSHV LANA binding to histone H2A/H2B. inhibition, % (test concentration not listed). Q9QR71. cell-free LANA-H2A/H2B peptide, fluorescence polarization. hit rate 0.6% among 320,000; in the data active means inhibition mostly above about 10%, no sharp cut-off; inactive means mostly below about 6.7%;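 further: stock transfer was 7.5 nL into about 10 µL; 0% = median of vehicle wells and 100% = median of positive control wells; one replicate is shown; the record names a cut of 25% in any replicate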
UCH37 DUB inh – inhibitors of human deubiquitinating enzyme UCH37. purified proteasome/UCH37, Ub-AMC cleavage fluorescence. inhibition, % (concentration not given with the values). AID 588478. hit rate 0.33% among 330,000;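 active means mean of two replicates above 20%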;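 further: 0% = compound-free wells with enzyme and 100% = wells lacking proteasome; stock transfer was 100 nL into about 20 µL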
Target sequence (Q9Y5K5 whole entry, looked up): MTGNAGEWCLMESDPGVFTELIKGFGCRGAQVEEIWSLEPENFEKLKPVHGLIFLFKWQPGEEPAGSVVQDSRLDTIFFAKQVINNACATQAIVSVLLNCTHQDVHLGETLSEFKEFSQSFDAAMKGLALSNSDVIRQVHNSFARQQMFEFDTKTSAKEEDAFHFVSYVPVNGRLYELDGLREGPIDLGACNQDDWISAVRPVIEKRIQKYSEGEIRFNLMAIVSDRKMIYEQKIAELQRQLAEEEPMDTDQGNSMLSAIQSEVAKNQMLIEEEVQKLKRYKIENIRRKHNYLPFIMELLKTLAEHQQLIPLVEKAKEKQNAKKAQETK
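Schedule: 30 min plus 25 min, room temperature / Material: human UCH37 within purified proteasomes / Technique: AMC fluorescence intensity at 355/460 nm / Buffer or medium: pH 7.4 Tris-HCl (50 mM) with ovalbumin, ATP-MgCl2, DTT / Controls: wells without proteasome as full block, compound-free enzyme plus substrate as uninhibited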
Beta2AR agonist – activates human beta-2 adrenergic receptor causing internalization; P07550; Am2.2-beta2AR cells, FAP receptor internalization, flow cytometry; reference of the scale not given here; response, % (concentration not given with the values); hit rate 0.43% among 340,000; AID 504454;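 active means response above a set limit, near 3 SD of response in nonfluorescent compounds, cut at about 42% in these data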;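 further: stock transfer was 100 nL into about 11 µL; a reference agonist was the positive control; negative values mostly stem from fluorescent compounds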
Target sequence (P07550 whole entry, looked up): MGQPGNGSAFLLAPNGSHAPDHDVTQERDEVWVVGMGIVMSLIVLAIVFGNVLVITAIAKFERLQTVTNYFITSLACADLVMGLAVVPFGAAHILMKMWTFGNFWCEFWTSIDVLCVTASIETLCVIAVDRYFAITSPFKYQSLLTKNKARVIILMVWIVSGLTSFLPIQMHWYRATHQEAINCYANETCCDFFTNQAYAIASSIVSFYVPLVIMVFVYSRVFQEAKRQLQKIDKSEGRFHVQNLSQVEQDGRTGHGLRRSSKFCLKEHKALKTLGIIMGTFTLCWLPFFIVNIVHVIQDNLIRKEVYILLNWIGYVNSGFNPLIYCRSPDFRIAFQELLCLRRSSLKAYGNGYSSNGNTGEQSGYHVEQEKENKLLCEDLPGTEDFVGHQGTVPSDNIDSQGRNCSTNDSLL
Calb FLC – C. albicans growth modulation with fluconazole. C. albicans CaCi-2 (fluconazole-resistant clinical isolate) + fluconazole, Alamar Blue growth, 48 h. AID 1979. growth inhibition, % (no concentration beside the values). hit rate 0.57% among 300,000;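 active means most replicates above 75%; inconclusive means exactly half above 75%; inactive means most below 75%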;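 further: all wells also contain fluconazole at 8 µg/ml as a sub-toxic cotreatment; 0% = median of DMSO wells and 100% = median of geldanamycin control wells; wells of about 8 µL received 7.5 nL stock; the first replicate is given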
RanGTP-Impb inh – disruptors of Ran-importin-beta complex formation – biochemical, FRET, CFP-Ran, YFP-importin-beta, homogeneous, primary screen; cell-free CFP-Ran/YFP-importin-beta FRET ratio; inhibition, % (no concentration beside the values); hit rate 1.1% among 300,000; AID 2216;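 active means most replicates above 15%; inconclusive means exactly half above 15%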;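 further: 0% = DMSO wells and 100% = Ran loaded with GDP instead of GTP; wells of about 40 µL received 100 nL stock; the first replicate is given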
Bfl-1 A1 inh – inhibitors of the anti-apoptotic protein A1, read as caspase activation | MEF A1-2A-BIM cells, Caspase-Glo 3/7 luminescence, 3 h; percent of clofoctol response, vehicle zero | caspase activation, % (concentration not given with the values) | AID 2462 | hit rate 0.066% among 330,000;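 active means over half of replicate activation scores above 10%, or exactly half above 10 with the replicate mean above 10; inconclusive means replicate mean below 10 yet half the replicates above 10; inactive means over half of replicates below 10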;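 further: wells of about 30 µL received 50 nL stock; many hits fall short of the cut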
* = called active by the depositor; ? = inconclusive; nt = not tested or not shown; & = joins results of further samples. Compounds were not picked by outcome. Share with any hit: about 4.3%.

SMILES	T cruzi inh	Beta cell apopt	LANA-H2A inh	UCH37 DUB inh	Beta2AR agonist	Calb FLC	RanGTP-Impb inh	Bfl-1 A1 inh
Cc1ccc2c(=O)cc(C(=O)NC3CCS(=O)(=O)C3)oc2c1C (configuration not stated)	-4	nt	nt	2.2	0	-2	-4.0	nt
Cc1cccc(OCCCCCNCCO)c1	9	-6	-8.2	1.4	2	-17	1.1	?
CC(OC(=O)Cn1ccccc1=O)C(=O)Nc1cc(Cl)cc(Cl)c1 (configuration not stated)	nt	1	-0.1	2.1	-8	nt	nt	0.0
Fc1ccc2c(c1)Sc1ccc(Cl)cc1CC2N1CCN(CCC2OCCO2)CC1 (configuration not stated)	14	9	-5.8	3.9	5	-20	2.2	-0.7
COC(=O)[C@H](C)[C@@H]1C[C@@]1(C)[C@@H](NC(=O)OCc1ccccc1)c1ccccc1	3	-16	-1.0	0.1	-3	1	-0.3	0.5
O=C(Cc1coc2ccc3ccccc3c12)N1CCc2ccccc21	21	nt	2.4	-2.9	-1	?	2.0	-0.2
Cc1ccc(-n2c(Cl)c(Cl)nc(Cl)c2=O)cc1	nt	98*	-5.5	-150	50*	nt	nt	-0.1
CC(=O)OC(C)[C@H]1CC[C@H]2[C@@H]3CC[C@H]4C[C@@H](OC(C)=O)CC[C@]4(C)C3=CC[C@]12C (some centres not stated)	-19	6	6.2	1.1	2	2	-0.4	-0.2
CCOC(=O)C1(Cc2ccccc2C)CCCN(C(=O)CN2CCCCC2=O)C1 (configuration not stated)	-10	-5	1.8	2.0	-3	-5	-0.3	0.5
NN/C(=C\[N+](=O)[O-])Nc1ccc(Cl)cc1	-39	3	5.2	6.6	-3	-22	5.5	-0.2
CN(C)c1cccc(C(=O)Nc2ccc(N3CCOCC3)cc2)c1	-2	5	-1.6	-0.2	1	9	4.6	-1.9
COc1ccc(OCC(=O)Nc2cccc(-c3nc4ccccc4o3)c2)cc1	15	2	1.9	-1.4	-12	8	1.0	-4.5
Cc1cc(=O)oc2cc(OCC(=O)NCCc3c[nH]c4ccc(F)cc34)ccc12	16	4	13	-4.1	-1	2	-2.1	1.1
CCC(C)Sc1ccc([C@H]2N[C@@](CC(C)C)(C(=O)OC)[C@H]3C(=O)N(CC)C(=O)[C@@H]23)cc1 (some centres not stated)	-4	18	0.9	1.8	-4	-3	3.8	0.4
COc1ccccc1C(C)NS(=O)(=O)c1cccs1 (configuration not stated)	-6	-2	8.5	nt	nt	17	-1.2	0.2
O=C(N/C(=C/c1ccco1)C(=O)N1CCc2ccccc21)c1ccco1	2	-8	0.0	11	-1	0	-1.2	0.6
Cc1cc(C(F)(F)F)c2c(n1)sc1c(O)cc(=O)[nH]c12	-16	9	2.7	0.6	13	11	-1.6	1.4
O=S(=O)(c1ccc(Br)cc1)N1CCN=C1SCc1cccc(F)c1	5	-3	-1.3	3.1	-9	14	2.4	-0.3
Cc1ccc(S(=O)(=O)N2CCCC2CNC(=O)C(=O)Nc2ccccc2)cc1 (configuration not stated)	12	2	5.1	3.8	-4	-2	-4.3	-1.4
N#Cc1cc2c(=O)n3ccccc3nc2n(-c2ccc(Cl)cc2)c1=O	-1	-7	2.5	nt	-2	34	nt	0.2
Cc1cccc(C(=O)NC(NCCc2ccccc2)C(Cl)(Cl)Cl)c1 (configuration not stated)	6	2	-0.8	0.8	11	-65	-1.1	0.3
CC(=O)c1cccc(NC(=S)N2CCCC2)c1	1	-6	-0.3	0.1	3	0	0.6	0.6
O=c1[nH]c(C(Cl)(Cl)Cl)nc2ccc3ccccc3c12	-18	3	1.5	0.8	15	-2	0.3	0.7
CCc1ccc(CN2CCCC(C(=O)Nc3ccccc3-c3ccc(OC)cc3)C2)o1 (configuration not stated)	23	2	-1.4	1.0	6	-8	0.2	-1.1
CCOCc1nnc(NC(=O)C2c3ccccc3Oc3ccccc32)s1	-14	-5	-3.7	1.4	2	0	?	0.4

Later entries.
SMILES	T cruzi inh	Beta cell apopt	LANA-H2A inh	UCH37 DUB inh	Beta2AR agonist	Calb FLC	RanGTP-Impb inh	Bfl-1 A1 inh
COc1ccc(CCNC(=O)CSc2nc(O)cc(=O)[nH]2)cc1OC	2	3	1.6	0.8	-72	-9	-0.9	0.3
Cc1ccc(C(=O)C2CCN(C(=S)NCC3CCCO3)CC2)cc1 (configuration not stated)	5	9	4.2	1.8	-5	12	-1.3	-1.5
COC(=O)COc1ccc(/C=C2/SC(=O)N(CC(=O)N3CCCC3)C2=O)cc1Br	6	nt	-3.0	3.8	29	13	1.4	-0.9
O=C(NCC(c1ccc(F)cc1)N1CCOCC1)c1cccc(Br)c1 (configuration not stated)	-3	-10	-1.7	0.1	2	?	-1.1	1.1
CC(C)(C)n1ncc2c(=O)n(Cc3c(F)cccc3Cl)cnc21	20	0	5.3	4.2	-5	1	-0.9	1.2
Cc1cc(C(=O)COC(=O)CC2Sc3ccccc3NC2=O)c(C)n1-c1ccc2c(c1)OCO2 (configuration not stated)	9	-6	3.5	2.4	2	-12	0.2	-0.3
Cc1ccc(C)c(S(=O)(=O)Nc2ccc3[nH]c(=O)[nH]c3c2)c1	9	-1	1.9	2.6	-1	2	3.7	0.6
CCOc1ccc(-c2nnc(Nc3ccc(OC)c(C(=O)N4CCCCC4)c3)c3ccccc23)cc1	21	10	-4.8	-12	9	14	1.8	0.2
CCc1ccc(Nc2n[n+](-c3ccccc3)c(-c3ccc(OCc4ccccc4)cc3)s2)cc1	55*	60	4.0	5.3	-1	1	-1.5	-1.0
CCCCn1c2ccccc2c2nnc(SCCN3CCCCC3)nc21	27	nt	nt	4.1	-7	-2	-1.7	nt
Cc1c(NC(=O)c2cc(=O)[nH]c(=O)[nH]2)c(=O)n(-c2ccccc2)n1C	-3	-3	-3.5	4.9	-1	-2	0.4	0.8
N#Cc1ccccc1CN1C(=O)NC2(CCCCCC2)C1=O	5	-3	0.3	1.7	-10	-1	-1.9	-0.4
Cc1ccc2nc(-c3ccco3)c(Nc3ccccc3)n2c1	-5	-10	2.1	-168	-2	9	14	0.7
CC(C)CN(C(=O)COC(=O)C1CC1)c1c(N)n(Cc2ccccc2)c(=O)[nH]c1=O	-5	0	-5.4	4.2	0	8	-1.2	1.4
CN(CCOc1ccc(Cl)cc1)CC(O)c1ccccc1 (configuration not stated)	53	3	1.7	3.0	-3	-12	5.3	-0.8
COc1cc(NC(=O)c2sc3ncn(CC(=O)N4CCCC(C)C4)c(=O)c3c2C)cc(OC)c1OC (configuration not stated)	-1	11	6.6	3.5	-19	-16	-2.8	1.0
CCc1ccc(C(=O)CSc2nc(N)cc(=O)[nH]2)cc1	-3	nt	0.7	1.5	4	-1	-17	0.6
OC(COCc1ccc2c(c1)OCO2)CN1CCCCC1 (configuration not stated)	-9	-1	3.8	-0.5	4	-12	-4.2	0.2
O=C(CCNC(=O)c1ccc(Br)cc1)Nc1cccc(S(=O)(=O)N2CCCCCC2)c1	20	-11	-4.3	nt	-9	16	-0.2	-0.8
Cc1ccc(C(=O)Nc2nc3ccccc3n2CCN2CCCC2)cc1	15	10	-2.4	2.4	14	-3	1.8	0.4
CCc1nnc(NC(=O)c2nc(S(=O)(=O)Cc3cccc(C)c3)ncc2Cl)s1	13	-30	-2.2	nt	14	14	-0.1	1.3
CCC(c1nnc(SCC(=O)N2CCOCC2)n1C1CCCCC1)N(C)C (configuration not stated)	0	-2	16	1.3	-2	2	5.0	-0.2
NS(=O)(=O)c1ccc(CCNC(=O)CSc2ccc3ccccc3c2)cc1	8	-5	-11	0.2	-5	0	-0.2	-0.9
CC(=O)Oc1ccc(/C(C)=N\N2CCN(Cc3ccc(Cl)cc3)CC2)cc1	-1	2	-0.6	nt	3	-9	-1.9	0.8
CCOC(=O)N1CCN(C(=O)CCl)CC1	-11	-3	1.3	0.3	4	9	5.6	-0.3

Later entries:
SMILES	T cruzi inh	Beta cell apopt	LANA-H2A inh	UCH37 DUB inh	Beta2AR agonist	Calb FLC	RanGTP-Impb inh	Bfl-1 A1 inh
O=C(NCc1cccs1)c1ccc(CS(=O)(=O)c2ccc(Cl)cc2)o1	12	-1	3.4	0.1	-2	4	-0.6	-0.6
CCOc1ncccc1C(=O)Nc1ncc(C)s1	-7	-1	-0.3	3.1	-10	1	0.3	0.0
O=C(CSC1=NCCN1)NC(c1ccccc1)c1ccccc1	12	-21	-4.3	3.0	0	-1	3.3	-0.2
Cc1ccc(NC(=O)CN(C)C(=O)c2n[nH]c(=O)c3ccccc23)cc1	-4	1	2.8	1.9	1	-13	-4.7	0.0
COC(=O)C1CCN(Cc2nnc(-c3ccccc3)o2)CC1	-9	-3	-4.1	5.4	2	-1	1.5	-0.6
COc1ccc(S(=O)(=O)N2CCC(C(=O)NCc3ccncc3)CC2)cc1OC	-14	1	3.4	nt	-1	-4	4.8	0.6
Cc1cccc(C(=O)NC(=S)NCc2cccnc2)c1	-4	1	2.6	1.3	-4	2	1.3	0.8
CC(C)CC(NC(N)=O)C(=O)NCCc1ccc(Cl)cc1 (configuration not stated)	-16	-2	-8.4	2.2	-2	6	4.0	0.7
COCc1cc(C)nc2sc(C(=O)Nc3ccccc3F)c(N)c12	11	0	5.7	-98	-19	6	-0.5	-0.5
O=C(O)CCCCCNC(=O)c1ccccc1	2	-5	2.9	0.7	12	4	-1.4	0.7
Nc1nc(SCC(=O)N2CCCc3ccccc32)n(-c2ccccc2)n1	-5	-3	-3.0	4.1	-7	3	-4.4	1.2
CCOC(=O)C1=C(C)NC(C)=C(C(=O)OCC)C1C(=O)OCC(=O)N1CCC(C)CC1	17	-5&1	-1.6&1.6	-27&-23	1&-13	10	-0.3	1.5&0.3
O=c1[nH]nc(-c2ccccc2)c2ccccc12	-1	-5	-4.3	1.1	-6	0	4.4	-0.2
O=C(O)c1cccc(C(=O)Nc2cccc(NC(=O)C3CCCO3)c2)c1 (configuration not stated)	-2	-6	-3.2	-0.1	1	-1	0.4	-5.8
Cn1cnc(NCc2ccccc2)c1[N+](=O)[O-]	-15	0	-3.1	4.2	3	0	1.3	0.3
O=C(Nc1ccc2c(c1)Cc1ccccc1-2)c1cc2ccccc2o1	-4	-1	1.6	-180	5	0	-3.3	-0.2
O=C(Nc1nnc(-c2ccc(F)cc2)s1)c1c(F)cccc1Cl	-7	-3	3.1	4.9	-3	2	5.5	0.0
COc1ccc(C2=NCCn3nc4cc(C(F)(F)F)ccc4c32)cc1	-11	-4	-1.4	0.7	-7	31	2.0	-1.0
C=CC[C@H](CC(=O)NCCO)C(=O)NCCOC(=O)[C@@H](CC=C)Cc1ccc(F)cc1	nt	-4	1.9	-0.4	-3	nt	nt	0.1
O=S(=O)(c1cccc(-c2nnc(SCc3nc4ccccc4s3)o2)c1)N1CCOCC1	-5	-2	-3.7	-0.7	-2	5	-1.9	0.2
O=C(CN(CC1CCCO1)C(=O)CNS(=O)(=O)c1ccccc1)NCc1ccccc1 (configuration not stated)	6	-7	-2.4	2.2	-2	-7	5.4	0.4

High-throughput results from PubChem.
